# High-throughput results: PubChem BioAssay, several laboratories
# WNV NS2B-NS3 inh – WNV NS2B-NS3 proteinase inhibition; P06935; WNV NS2B-NS3 protease, fluorogenic substrate Ex360/Em465; active compounds read low; z-score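 (tested at a level between 10 and 100 µM)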; 0.18% of 65,000 active; AID 577;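 active = z-score at -3 or under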;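 also: score is relative to mean and spread of the compound wells of a plate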
# Hsc70 – Hsc70 inhibitors, probe displacement, primary screen, biochemical, fluorescence polarization (AID 568) | Hsc70 fluorescence polarization, probe displacement; higher % means a stronger effect; strong numbers were not always called active | displacement, % at 20 µM, or IC50 in µM where a hit was titrated | 83,000 tested, under 10 active;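 active = displacement above 50% without optical interference and an IC50 on retest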;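 also: ATPase domain with a fluorescein-tagged ATP probe; 0% = vehicle and 100% = excess ADP; read after one hour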
# MT1-MMP reporter – MT1-MMP gene expression reporter suppression – cell-based, luciferase reporter, luminescence (AID 618); MT1-MMP promoter luciferase reporter cells, luminescence; calls from a first round at 10 µM; hits with a dose series show EC50 in µM; 0.62% of 87,000 active;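 active = over half of the reporter light lost at 10 µM or EC50 under 50 µM; inactive = the rest and hits that failed the dose series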;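 also: actives suppress MT1-MMP promoter-driven transcription so potencies describe inhibitors; HT1080 fibrosarcoma cells; overnight exposure; toxic or luciferase-blocking compounds were not removed from the actives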
# Numbers without * were called inactive; i = inactive; & = joins results of further samples.
SMILES,WNV NS2B-NS3 inh,Hsc70,MT1-MMP reporter
CC[C@@H]1C(=O)OC[C@@H]1Cc1cncn1C,0.13&0.23,0.1%&-6.7%,i

# Some of the compounds tested; count on the stated rates, not on these rows.
